Screens from PubChem BioAssay.
TAR Tat displ: HIV-1 TAR-Tat binding disruption. HIV-1 TAR RNA, Tat peptide displacement FRET; hits give high values. z-score (concentration not given with the values). actives 0.6% (n = 100,000);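 further: score is relative to mean and SD of negative controls; some compounds called inactive have numbers as strong as hits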
CDC25B-CDK2 inh: human CDC25B-CDK2/CyclinA binding inhibition | P30305+P24941 | HTRF CDC25B-CDK2/CyclinA binding, anti-His/anti-Flag; hits give high values | z-score (test concentration not listed) | actives 0.72% (n = 94,000) | AID 1259370;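 further: score is relative to mean and SD of negative controls; strong numbers were not always called active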
An asterisk follows results filed as active; nt = no result given.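 How the source made its calls: active means z-score from 3 up in half or more of its runs; inactive means the rest.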

#	structure	CDC25B-CDK2 inh	TAR Tat displ
1	NC(=O)c1nc(Nc2ccccc2)sc1NC(=O)c1[nH]nc2c1CCc1ccccc1-2	nt	0.43
2	CNC(=O)c1c(NC(=O)c2cc(-c3ccc(Cl)cc3)on2)sc2c1CCCC2	-0.88	0.45
3	CCOc1cccc(C2Nc3ccccc3-n3cc4c(=O)n(C)c(=O)n(C)c4c32)c1O (stereo unspecified)	-2.1	1.6
4	Cc1cc(NC(=O)C2=CC(c3ccco3)=NS(=O)(=O)N2C)no1	-1.1	-1.2
5	O=c1[nH]c2cc3c(cc2c(=O)n1Cc1nc(-c2ccccn2)no1)OCO3	nt	-0.18
6	COc1ccc(CN=C2NS(=O)(=O)C(c3cccc(Br)c3)=C2C)cc1	-4.2	-1
7	O=C(Cn1c(=O)oc2cc(Cl)ccc21)N1CCC(c2ccccc2)C1 (stereo unspecified)	nt	1.2
8	CCCS(=O)(=O)n1nc(-c2ccc(Br)cc2)cc1N	-0.64	-0.87
9	COc1cc(NC(=O)c2cc(C)no2)c(OC)cc1Cl	-2	nt
10	Cc1ccc(NS(=O)(=O)c2cc(-c3cnc(C)o3)ccc2C)cc1	nt	0.5
11	CN(C)c1nc(Oc2ccc(=O)n(-c3ccccc3)n2)nc(N2CCOCC2)n1	-0.5	-1.6
12	Cc1c(C(=O)N2CCc3ccccc3C2)sc2nc3n(c(=O)c12)CCCCC3	nt	1.3
13	CCOC(=O)c1ccc2[nH]c(CSc3nnc(-c4ccccc4)n3C)cc(=O)c2c1	nt	0.04
14	O=S(=O)(Nc1cccc(-c2ccno2)c1)c1ccc(-c2cnc(C3CC3)o2)cc1	nt	0.9
15	CC1CCN(S(=O)(=O)c2ccc3nc(Nc4ccc(S(N)(=O)=O)cc4)ccc3c2)CC1	nt	1.6

The list goes on, starting with the last 3 of the part before.
#	structure	CDC25B-CDK2 inh	TAR Tat displ
13	CCOC(=O)c1ccc2[nH]c(CSc3nnc(-c4ccccc4)n3C)cc(=O)c2c1	nt	0.04
14	O=S(=O)(Nc1cccc(-c2ccno2)c1)c1ccc(-c2cnc(C3CC3)o2)cc1	nt	0.9
15	CC1CCN(S(=O)(=O)c2ccc3nc(Nc4ccc(S(N)(=O)=O)cc4)ccc3c2)CC1	nt	1.6
16	O=C(NNC(=O)c1cnn(-c2ccc(Cl)cc2)c1C(F)(F)F)C1=Cc2cc(Cl)ccc2OC1	-1.9	nt
17	O=C(COc1ncnc2cc(Cl)ccc12)Nc1cccc(C(F)(F)F)c1	-0.74	nt
18	Cc1ccc(-c2cnnc(-n3nc(C)c4c3NC(=O)CC4c3ccccc3)n2)cc1 (stereo unspecified)	-0.05	4.4
19	CCOC(=O)c1c(C)c(C(=O)NCCOC)c(C)n1CC	-1	nt
20	FC(F)(F)c1cc(-c2ccc(Cl)cc2)nc2cc(-c3ccccc3)nn12	0.11	nt
21	COCCNS(=O)(=O)c1ccc2c(c1)oc(=O)n2C	1.2	-0.03
22	CCOC(=O)c1nn(-c2ccc(OC)cc2)c(=O)c2c(NC(=O)C3CCCC3)scc12	-1.4	nt
23	CS(=O)(=O)NCCc1csc(-c2ccc(F)cc2)n1	nt	-0.32
24	Cc1ccc2cc(-c3noc(C(C)(C)C)n3)c(=O)[nH]c2c1	-0.89	0.69
25	CCN1CCN(C(=O)C2CCN(S(=O)(=O)c3c(C)nn(CC(=O)N4CCCC4)c3C)CC2)CC1	nt	1.5
26	Cc1cc(NC(=O)Cn2ncc3c4ccccc4n(C)c3c2=O)no1	-0.89	-0.49
27	O=C(Nc1cccc(-c2nc3ccccc3o2)c1)c1ccc2ccccc2c1	-3.8	nt
28	CC1=C(C(=O)OCCOC(C)C)C(c2c(F)cccc2Cl)CC(=O)N1 (stereo unspecified)	-0.98	-1.1
29	O=C(CCC(=O)N1CCOc2ccc(Cl)cc21)NCCCN1CCOCC1	-1.8	1.1
30	CC(c1ccccc1)N1CNc2c(c(=O)nc3n2CC(C)(C)S3)C1 (stereo unspecified)	-1.6	-0.25
31	CCOC(=O)N1CCC(NC(=O)c2c(C)oc3ncnc(N4CCOCC4)c23)CC1	-0.39	-0.36
32	COc1ccccc1-c1nnc2sc(-c3cc4ccccc4o3)nn12	-2	1.6
33	O=C(NCc1cccs1)c1ccc2c(c1)sc1nc(-c3ccc(F)cc3)cn12	nt	1.4
34	CC1CCCC(NC(=O)C2CCCN(c3nnc(N4CCCC4=O)s3)C2)C1C (stereo unspecified)	-2.9	2.6
35	CN1CCN(Cc2c(O)ccc3c(=O)c(-c4ccccc4Cl)c(C(F)(F)F)oc23)CC1	-0.84	2.3
36	CCOC(=O)N1CCN(c2c(NCc3cccnc3)c(=O)c2=O)CC1	-1.4	-1.3
37	Cc1ccc(C2C(C(=O)c3cccs3)=C(O)C(=O)N2CCCn2ccnc2)cc1 (stereo unspecified)	-1.1	0.73
38	COCCN1C(=O)c2cc3occc3n2CC1(C)C(=O)NC1CCCCC1 (stereo unspecified)	nt	1.9
39	Fc1ccc(C2=NN(c3ccccc3)C(c3ccco3)C2)cc1 (stereo unspecified)	-1.2	-9.4
40	CNC(=O)Nc1ccc(Oc2cncc(Cl)c2)nc1	-1.2	nt
41	COc1ccc(OCCSc2nc(C)cc(=O)[nH]2)cc1	-1.2	2
42	CCCc1nnc(NC(=O)Nc2[nH]c(C)c(C(=O)OCC)c2C)s1	0.56	1.2
43	CCCC(C(=O)c1ccccc1)n1cncn1 (stereo unspecified)	-0.94	2.1
44	O=C(C1=C(O)C(=O)N(Cc2cccnc2)C1c1ccc(Cl)cc1)c1cccs1 (stereo unspecified)	-4.1	0.33
45	Cc1nc2ccccn2c1-c1csc(Nc2ccc(S(N)(=O)=O)cc2)n1	-1.8	0.26
46	O=C(Cn1c2c(c(-c3ccccc3Cl)cc1=O)CCC2)NCC1CCCO1 (stereo unspecified)	nt	0.56
47	Cc1nc(CNC(=O)c2cccs2)cs1	-2.4	0.2
48	Cc1nn(-c2ccccc2)c2nc3ccccc3c(N3CCOCC3)c12	-1.5	nt
49	CCOc1ccc(-c2noc(CSc3nc4cc5c(cc4c(=O)n3C3CCCC3)OCO5)n2)cc1	nt	0.69
50	O=C(c1cc2cc3ccc(Cl)cc3nc2o1)N1CCCc2ccccc21	nt	0.58
51	Cc1cc(C)c(NC(=O)CSc2nnc(C)n3c2cc2occc23)c(C)c1	nt	-1
52	CCOC(=O)C1CCCN(c2c(NCC3CCCO3)c(=O)c2=O)C1 (stereo unspecified)	-1.1	1.2
53	Cc1c(C(=O)N2CCCC2)oc2c1-c1nn(CC(=O)NCCCN3CCOCC3)cc1CC2	nt	1.2
54	CS/C(=C(/C#N)S(=O)(=O)c1ccc(Cl)cc1)N1CCSCC1	-2.3	nt
55	O=C(Nc1ccccc1)N1CCCc2ccccc21	-1.5	5.2
56	CC(C)N(Cc1nc(-c2ccccc2)no1)S(=O)(=O)c1ccc(Br)cc1	-0.9	0.49
57	O=C(NCc1ccccn1)c1cnn(-c2ccccc2)c1-n1cccc1	1.2	-0.05
58	Cc1cc(OC(CN(C)C)CN(C)C)nc2ccccc12	-0.31	1.7
59	CN(C1CCCCC1)S(=O)(=O)c1ccc2[nH]c3c(c2c1)CCCC3	nt	-7
60	CC1Cc2nc(SCC(=O)NC3CCCCC3)n(-c3ccc(F)cc3)c(=O)c2S1 (stereo unspecified)	1.6	0.03
61	CCOC(=O)c1c(S(=O)(=O)N2CCCC(C(=O)Nc3nccs3)C2)c(C)n(CC)c1C (stereo unspecified)	nt	1.6
62	CC(C)CN(CCNC(=O)c1csc2c1CCCCC2)CC(C)C	-2.9	0.22
63	O=C(Cc1c(F)cccc1Cl)N1CCCC1c1ccco1 (stereo unspecified)	-2.1	0.76
64	O=C(NC1CCCC1)c1ccc(NC(=O)C2CCCO2)cc1 (stereo unspecified)	0.05	nt
65	COC(=O)c1ccc(C2C(C(=O)OCc3ccccc3)=C(C)Nc3nnnn32)cc1 (stereo unspecified)	-0.02	nt
66	Cn1c(=O)c2c(-c3ccc(F)cc3)c(NCc3ccccc3)oc2n(C)c1=O	nt	1.4
67	COCCOc1nc2c(c(=O)n(C)c(=O)n2C)n1Cc1ccccc1	-0.28	0.73
68	O=C(Nc1c(-c2ccccc2)nc2ccc(Cl)cn12)c1ccco1	2.6	0.78
69	COc1ccc2c(c1)CCc1c(C(=O)Nc3cc(C)on3)noc1-2	-0.52	-1.4
70	CCN1CCN(c2cc3c(cc2F)c(=O)c(S(=O)(=O)c2ccc(C)c(C)c2)cn3CC)CC1	nt	0.2
71	COc1ccccc1-c1nc2c(c(=O)[nH]1)Cc1cc(F)ccc1O2	-0.96	2.2
72	O=C1CCSc2ccc(S(=O)(=O)NCCCc3ccco3)cc2N1	nt	1.1
73	COC(=O)CN1C(=O)C(C)(C)c2cc(S(=O)(=O)N3CCCc4ccccc43)ccc21	nt	0.79
74	O=C(O)CCc1nnc2ccc(N3CCCC3)nn12	-0.4	0.2
75	O=C(Cn1ncn2cccc2c1=O)NCC1CCCO1 (stereo unspecified)	0.35	0.46

Going on with the list:
#	structure	CDC25B-CDK2 inh	TAR Tat displ
76	CC1=C(C(=O)OC(C)C)C(c2coc3ccccc3c2=O)C2=C(CC(c3cccs3)CC2=O)N1 (stereo unspecified)	-1.4	-0.24
77	CCCC1=Nc2cc(C(=O)N3CCN(C(=O)OCC)CC3)ccc2Sc2ccc(C)cc21	-1.4	1
78	Cc1cc(C)n2nc(CNC(=O)Nc3ccccc3Cl)nc2n1	-0.21	1.4
79	COc1ccccc1OCc1nnc(-c2ccccc2Cl)o1	0.86	1.8
80	C[n+]1cccc(C(N)=O)c1	-1.5	nt
81	CC(C)/C=C/C1=CC2=C(C1)Cc1ccccc12	0.88	nt
82	C=CCOC(=O)C1C(c2ccc(Cl)cc2)c2c([nH][nH]c2=O)CC1(C)O (stereo unspecified)	-0.76	0.9
83	O=C(Nc1ccc2c(c1)OCCO2)c1cnccn1	-0.95	nt
84	COc1ccccc1C1CC(=O)C2=C(C1)NC(C)=C(C(=O)OC(C)C)C2c1cccc(OC)c1OC (stereo unspecified)	0.15	0.73
85	O=C(/C=C/c1cccs1)NCCc1ccccc1	-1.6	nt
86	Cn1c(=O)n(Cc2ccco2)c(=O)c2sc3ccccc3c21	-1.5	2.2
87	O=C(NCc1csc(-c2ccccc2)n1)[C@H]1CSCN1C(=O)CCc1ccccc1	nt	0.84
88	CCN1C(SCC(=O)Nc2cccc(SC)c2)=NS(=O)(=O)c2ccccc21	nt	0.97
89	Oc1ccc2ccccc2c1N=Nc1ccccc1I	-3.3	nt
90	CC(C)c1nnc2sc(NC(=O)C3CCCCC3)nn12	0.64	1.2
91	CCOC(=O)c1nnn(-c2nonc2N)c1-c1ccc2c(c1)OCO2	0.21	nt
92	Cc1ccc(C2=Nn3c(nnc3-c3cccc(C)c3)SC2)cc1	nt	0.11
93	CC(C)c1nnc(NC(=O)C(=O)c2c[nH]c3ccccc23)s1	-1.3	2
94	O=S1(=O)CCCCN1c1ccc(S(=O)(=O)N2CCN(c3ccc(F)cc3)CC2)cc1	nt	1.6
95	Cn1c(=O)c2c(nc(N3CCN(c4ccccc4)CC3)n2CCSc2ncccn2)n(C)c1=O	-0.6	nt
96	COC(=O)c1ccc2c(=O)n3nc(Nc4cc(Cl)ccc4C)sc3nc2c1	nt	0.02

From compound 73 up to 96, copied from above:
#	structure	CDC25B-CDK2 inh	TAR Tat displ
73	COC(=O)CN1C(=O)C(C)(C)c2cc(S(=O)(=O)N3CCCc4ccccc43)ccc21	nt	0.79
74	O=C(O)CCc1nnc2ccc(N3CCCC3)nn12	-0.4	0.2
75	O=C(Cn1ncn2cccc2c1=O)NCC1CCCO1 (stereo unspecified)	0.35	0.46
76	CC1=C(C(=O)OC(C)C)C(c2coc3ccccc3c2=O)C2=C(CC(c3cccs3)CC2=O)N1 (stereo unspecified)	-1.4	-0.24
77	CCCC1=Nc2cc(C(=O)N3CCN(C(=O)OCC)CC3)ccc2Sc2ccc(C)cc21	-1.4	1
78	Cc1cc(C)n2nc(CNC(=O)Nc3ccccc3Cl)nc2n1	-0.21	1.4
79	COc1ccccc1OCc1nnc(-c2ccccc2Cl)o1	0.86	1.8
80	C[n+]1cccc(C(N)=O)c1	-1.5	nt
81	CC(C)/C=C/C1=CC2=C(C1)Cc1ccccc12	0.88	nt
82	C=CCOC(=O)C1C(c2ccc(Cl)cc2)c2c([nH][nH]c2=O)CC1(C)O (stereo unspecified)	-0.76	0.9
83	O=C(Nc1ccc2c(c1)OCCO2)c1cnccn1	-0.95	nt
84	COc1ccccc1C1CC(=O)C2=C(C1)NC(C)=C(C(=O)OC(C)C)C2c1cccc(OC)c1OC (stereo unspecified)	0.15	0.73
85	O=C(/C=C/c1cccs1)NCCc1ccccc1	-1.6	nt
86	Cn1c(=O)n(Cc2ccco2)c(=O)c2sc3ccccc3c21	-1.5	2.2
87	O=C(NCc1csc(-c2ccccc2)n1)[C@H]1CSCN1C(=O)CCc1ccccc1	nt	0.84
88	CCN1C(SCC(=O)Nc2cccc(SC)c2)=NS(=O)(=O)c2ccccc21	nt	0.97
89	Oc1ccc2ccccc2c1N=Nc1ccccc1I	-3.3	nt
90	CC(C)c1nnc2sc(NC(=O)C3CCCCC3)nn12	0.64	1.2
91	CCOC(=O)c1nnn(-c2nonc2N)c1-c1ccc2c(c1)OCO2	0.21	nt
92	Cc1ccc(C2=Nn3c(nnc3-c3cccc(C)c3)SC2)cc1	nt	0.11
93	CC(C)c1nnc(NC(=O)C(=O)c2c[nH]c3ccccc23)s1	-1.3	2
94	O=S1(=O)CCCCN1c1ccc(S(=O)(=O)N2CCN(c3ccc(F)cc3)CC2)cc1	nt	1.6
95	Cn1c(=O)c2c(nc(N3CCN(c4ccccc4)CC3)n2CCSc2ncccn2)n(C)c1=O	-0.6	nt
96	COC(=O)c1ccc2c(=O)n3nc(Nc4cc(Cl)ccc4C)sc3nc2c1	nt	0.02
